Source: PubChem (Broad Institute)
STK33 kinase inh: blocks human STK33 kinase activity; purified STK33, MBP phosphorylation, ADP-Glo luminescence; 320,000 tested, 0.073% active; inhibition, % at 10 µM; Q9BYT3; AID 2661;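 active = inhibition at or above 25%, using the most active replicate where run in duplicate; inactive = inhibition below 25%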
Target sequence (Q9BYT3 whole entry, looked up): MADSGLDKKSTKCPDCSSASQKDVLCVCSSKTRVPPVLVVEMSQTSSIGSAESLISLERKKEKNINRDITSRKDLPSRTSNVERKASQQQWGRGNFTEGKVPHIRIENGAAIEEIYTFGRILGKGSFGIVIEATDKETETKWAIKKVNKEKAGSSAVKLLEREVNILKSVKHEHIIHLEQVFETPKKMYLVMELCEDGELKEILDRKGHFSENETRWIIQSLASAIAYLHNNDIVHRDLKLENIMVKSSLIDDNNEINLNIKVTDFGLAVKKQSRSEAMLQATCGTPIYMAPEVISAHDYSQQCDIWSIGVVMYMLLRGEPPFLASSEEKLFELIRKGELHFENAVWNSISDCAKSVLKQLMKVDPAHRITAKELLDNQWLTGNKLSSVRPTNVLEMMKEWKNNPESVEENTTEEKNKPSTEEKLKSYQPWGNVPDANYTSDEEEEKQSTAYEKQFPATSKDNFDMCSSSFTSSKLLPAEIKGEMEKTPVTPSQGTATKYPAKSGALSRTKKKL
Numbers without * were called inactive. Some of the compounds tested; most or all hits stand in other tables.

SMILES | STK33 kinase inh
COc1ccccc1Oc1coc2c(CN(C)C)c(O)ccc2c1=O | -0.8
CCOC(=O)N1CCC(N2C(=O)c3ccccc3C2Nc2ccc3c(C)cc(=O)oc3c2)CC1 (configuration not stated) | -2.0
Cc1ccc(-n2ncc(C(=O)N3CCc4ccccc4C3)c2NC(=O)c2ccco2)cc1C | -1.8
Cc1nc(SCc2ccccc2F)c2cnn(-c3ccccc3)c2n1 | -0.4
N#CC(=C1CCCC1)c1nc(-c2ccccc2)cs1 | -2.5
COc1ccc(C2C(C(=O)N3CCCCC3)c3ccccc3C(=O)N2C)cc1 (configuration not stated) | -0.5
Cc1ccccc1NC(=O)COC(=O)C1(C)CC1(Cl)Cl (configuration not stated) | -2.0
CC1(C)OCC(COC(=O)Nc2cccnc2)([N+](=O)[O-])CO1 | -1.2
O=C(CSc1nnc2c(n1)[nH]c1ccccc12)Nc1ccc2c(c1)OCO2 | -1.7
CC(C)(C)c1ccc(OC(=O)c2ccccc2)cc1 | -0.7
Cn1c2ccccc2c2cnn(CC(=O)NCCCN3CCN(c4ccccc4F)CC3)c(=O)c21 | -3.8
O=C(NCCS(=O)(=O)N1CCN(c2ccccc2)CC1)c1ccc(Br)o1 | 0.6
CC1CCCN(Cc2nc(Cc3ccccc3Cl)no2)C1 (configuration not stated) | -0.7
O=C(CCn1nnc2ccccc2c1=O)N[C@@H](Cc1c[nH]c2ccccc12)C(=O)O | -1.4
Cc1cc(C)cc(NC(=O)CSc2nc3[nH]ncc3c(=O)[nH]2)c1 | 1.8
Cc1cc(S(=O)(=O)N2c3ccc(F)cc3CCC2C)ccc1-n1cnnn1 (configuration not stated) | -0.9
COc1ccc(/C(=N/Nc2ncnc3ccccc23)C(=O)O)cc1 | -1.7
O=C(COC(=O)/C=C/c1ccco1)Nc1ncc(C(F)(F)F)cc1Cl | 0.8
O=C(Nc1ccc(C(F)(F)F)cn1)Nc1cccs1 | 0.0
Cc1nonc1NC(=O)CSc1nc(CCC2CCCC2)nc2ccccc12 | 0.7

Part of the list above in another layout:
| smiles | STK33 kinase inh |
| --- | --- |
| O=C(COC(=O)/C=C/c1ccco1)Nc1ncc(C(F)(F)F)cc1Cl | 0.8 |
| O=C(Nc1ccc(C(F)(F)F)cn1)Nc1cccs1 | 0.0 |
| Cc1nonc1NC(=O)CSc1nc(CCC2CCCC2)nc2ccccc12 | 0.7 |

(more compounds)
SMILES | STK33 kinase inh
CCN(CC)C(=O)CS(=O)(=O)CC(=O)Nc1cc(OCCOC)c(Cl)cc1Cl | 0.4
O=C(c1ccccn1)N1CCN(S(=O)(=O)c2ccccc2)CC1 | -3.2
O=C(CSc1nc2cc(Cl)ccc2s1)Nc1cccc(S(=O)(=O)N2CCOCC2)c1 | 0.2
O=C(CCN1C(=O)C2C3CCC(C3)C2C1=O)OCC(=O)c1ccc(Br)cc1 (configuration not stated) | -1.2
Fc1ccc(CSc2nnc(-c3ccco3)o2)cc1 | -0.1
Cc1cc(C)nc(NC2=NCC(=O)N2c2ccccc2Br)n1 | -3.2
O=C(NCCc1ccccn1)c1ccc2nc(Cc3ccccc3F)oc2c1 | -1.2
CC1Sc2ccc(S(=O)(=O)N3CCC(C(=O)N(C)Cc4ccco4)CC3)cc2NC1=O (configuration not stated) | -1.1
O=C1CCCN1CC(O)CS(=O)(=O)c1ccc(Cl)cc1 (configuration not stated) | 0.9
COc1cc(CNc2ncc(-c3ccc(Br)cc3)n2C)cc(OC)c1O | -0.5
CCOc1cc(NS(=O)(=O)CC)c(OCC)cc1NC(=O)c1ccco1 | 4.3
CC(Sc1nc2c([nH]c3ccccc32)c(=O)n1C)c1ccccc1 (configuration not stated) | -1.5
COCCn1ccc(O)c(Cc2ccc(Cl)cc2)c1=O | -1.6
Cc1ccc(CSc2nc(N)cc(=O)[nH]2)cc1 | -0.1
CC1CC(C)CN(Cc2nc(N)nc(Nc3ccc4ccccc4c3)n2)C1 (configuration not stated) | -1.0
COC(=O)c1cc(OC)c(OC)cc1NC(=S)N1CCN(C)CC1 | 0.0
CC1(C)CC(=O)c2cn3ncnc3nc2C1 | -0.6
O=C(c1ccccc1)c1ccc(-n2ccnc2)c([N+](=O)[O-])c1 | 0.2
Cc1ccc(C)c(-n2cc(CN3CCNC(=O)CC3)c(-c3ccccc3)n2)c1 | -3.2
O=C(O)CCCC(=O)Nc1ccc(OCc2nc3ccccc3s2)cc1 | 1.0
O=C(NC(=S)N(Cc1ccccc1)Cc1ccccc1)C1CCCCC1 | -1.1
CCCNC(=O)NC(=O)CSc1nc(C)cs1 | -1.3
CCCn1c(SCC(=O)Nc2c(C)cccc2CC)nnc1C(C)C | -2.7
CCOC(=O)N1CCC(N2CCCC(C(=O)c3cc(C)c(OC)c(C)c3)C2)CC1 (configuration not stated) | -1.4
O=C(Cc1ccc(Br)c2ccccc12)N/N=C/c1ccccn1 | 6.8
Cn1c(SCC(=O)c2ccc(-c3ccccc3)cc2)nnc1-c1ccco1 | -2.4
CC(C)NC(=O)NC(=O)COC(=O)C1CCCN1C(=O)c1cccs1 (configuration not stated) | -0.9
CCC(=O)Nc1cccc(C2=NOC3(C2)C[C@@H](C(N)=O)N(C(=O)CC(c2ccccc2)c2ccccc2)C3)c1 (some centres not stated) | 0.2
COc1ccc(C2C=C(c3ccccc3)Nc3ncnn32)cc1 (configuration not stated) | -0.1
O=C(CSCc1ccc(Cl)cc1Cl)Nc1c[nH]c(=O)[nH]c1=O | 0.8
COc1cc(CN2CCNC(=O)C2CC(=O)NCCc2ncccc2C)cc(OC)c1 (configuration not stated) | -1.1
COC(=O)c1ccc(-c2cc(CC3(C(=O)OC)CCN(C(=O)OC(C)(C)C)CC3)on2)cc1 | 0.2
O=C(Nc1nc2ccc(S(=O)(=O)N3CCOCC3)cc2s1)c1cccs1 | 0.1
O=C(NCC(=O)N1CCN(C(c2ccccc2)c2ccccc2)CC1)c1ccccc1F | -0.6
CCn1c(SCc2nc3ccccc3c(=O)[nH]2)nc2ccccc21 | -0.5
CCC(=O)N1CCc2cc(Br)cc(S(=O)(=O)NCc3ccco3)c21 | -0.3
CC(C)c1nc2sc3c(=S)nc[nH]c3c2c2c1CCC2 | 3.5
CCCCNC(=O)c1c(CSc2ccc(Cl)cc2)noc1C(=O)NCCC | 0.8
O=C(O)c1cccc2c1C(=O)N(Cc1ccncc1)C2 | 5.8
COc1ccc(N(CC(=O)NCCSc2ccccn2)S(=O)(=O)c2ccccc2)cc1OC | -0.5
Cc1ccc(S(=O)(=O)N2CCC(C)CC2)cc1C(=O)NCc1ccccn1 | -0.9
Cn1c(N2CCOCC2)c(C=O)c2ccccc21 | 0.0
O=C1CC(N(O)c2ccccc2)C(=O)N1c1cc(Cl)cc(Cl)c1 (configuration not stated) | 1.0
COc1ccc(N2CCN(Cc3cc(=O)oc4cc(C)c(Cl)c(C)c34)CC2)cc1 | -0.6
O=S(=O)(NC1=NCCCCC1)c1ccc2ccccc2c1 | 1.5
Cc1ccc(-c2nnc3sc(-c4ccncc4)nn23)cc1 | -0.3
CN(C)CCN(Cc1ccco1)S(=O)(=O)c1csc(C(N)=O)c1 | 1.2
CSc1nc(C)cc(Oc2ccc(=O)n(C)n2)n1 | -0.7
COC(=O)c1ccc(N2C(=O)CC(SCCN)C2=O)cc1 (configuration not stated) | 2.3
CC(C)OCCCNC(=S)NNC(=O)c1ccc(Cl)c(Cl)c1 | -1.8
Cc1ccc(C(=O)Nc2nc(=O)n(C)s2)cc1 | -4.5
O=C(CCc1nc2sc3c(c2c(=O)[nH]1)CCCC3)NCCc1ccc(F)cc1 | -2.7
CN(C)N(C)C(=O)C(O)(c1ccccc1)c1ccccc1 | 0.1
O=C(Cc1ccc(S(=O)(=O)N2CCOCC2)s1)Nc1ccc2c(c1)CCC2 | -0.6
CC(C)N(CCNC(=O)c1ccc(CS(=O)(=O)c2c(Cl)cccc2Cl)o1)Cc1ccccc1 | 0.5
Cc1ccccc1-c1nc(CS(=O)(=O)CC(=O)NCCN2CCOCC2)c(C)o1 | 0.1
CSCC[C@H](NC(=O)[C@@H]1CSC2c3ccccc3C(=O)N21)C(=O)NC1CCCC1 (some centres not stated) | 0.5
Cc1ccccc1C(=O)c1c[nH]c(C(=O)NCCCn2ccnc2)c1 | -0.9
Cc1ccn2cc(CCNC(=O)CC(C)(C)C)nc2c1 | -1.4
Cc1noc(C)c1COC(=O)CCCOc1ccc(Cl)cc1Cl | 0.3

Retrieved one by one from the list above:
SMILES | STK33 kinase inh
O=C(Cc1ccc(S(=O)(=O)N2CCOCC2)s1)Nc1ccc2c(c1)CCC2 | -0.6
CN(C)N(C)C(=O)C(O)(c1ccccc1)c1ccccc1 | 0.1
COc1ccc(N2CCN(Cc3cc(=O)oc4cc(C)c(Cl)c(C)c34)CC2)cc1 | -0.6

An excerpt from above in order of the STK33 kinase inh value, largest number first:
Compound,STK33 kinase inh
CSCC[C@H](NC(=O)[C@@H]1CSC2c3ccccc3C(=O)N21)C(=O)NC1CCCC1 (some centres not stated),0.5
COc1ccc(N2CCN(Cc3cc(=O)oc4cc(C)c(Cl)c(C)c34)CC2)cc1,-0.6
Cc1ccccc1C(=O)c1c[nH]c(C(=O)NCCCn2ccnc2)c1,-0.9

Next compounds follow.
SMILES | STK33 kinase inh
O=S(=O)(Nc1ccc2c(c1)OCO2)c1ccc(Br)s1 | -3.9
Cc1cc(N(C)N)nc(NC(=O)NS(=O)(=O)c2ccccc2Cl)n1 | -1.6
Cc1ccc(S(=O)(=O)NCCC(=O)O)cc1 | 0.5
O=C(c1ccc2c(c1)OCO2)N1CCN(c2ccccc2F)CC1 | -3.4
COc1ccc(N(CC(=O)NC2CCCCC2)C(=O)CNC(=O)c2ccco2)c(OC)c1 | -2.4
CCOP(=O)(c1ccccc1)C1(O)CCCCC1 (configuration not stated) | 0.2
O/N=C1\CCCc2ccccc21 | -0.3
CN(C)CCN(C(=O)C1CCCCC1)c1nc2cc3c(cc2s1)OCO3 | -0.4
CCOc1ccc2nc(NCCNC(=O)CC)c(C#N)cc2c1 | -3.2
CC(C)(C)C(=O)Nc1cc(NC(=O)C(C)(C)C)cc(C(=O)Nc2cc(C(=O)O)cc(C(=O)O)c2)c1 | -0.5
O=S(=O)(NC1CCCCC1)c1ccc(Br)cc1 | -0.5
Cc1cc(Cl)ccc1OCCCC(=O)OCC(N)=O | -0.8
CCC(C)NS(=O)(=O)c1ccc(OCC(=O)NCC2CCCO2)cc1 (configuration not stated) | -1.1
Cc1cccc(N2CCN(C(=O)NC(C)c3ccc(F)c(F)c3)CC2)c1C (configuration not stated) | -0.9
Cc1ccc(Cn2cnc3ccccc32)cc1 | -0.3
COc1ccc(Br)c(C(=O)N2CCN(S(=O)(=O)/C=C/c3ccccc3)CC2)c1 | -0.9
CCOC(=O)c1cc(-c2ccccc2)n(CC(=O)Nc2ccc(OC)c(OC)c2)c1C | -0.9
CC(C)[C@H](NC(=O)c1cccc(S(=O)(=O)N2CCOCC2)c1)C(=O)Nc1nc2ccccc2s1 | -1.1
Cc1c(C(=O)NCc2n[nH]c(=S)n2-c2ccc(F)cc2)cccc1[N+](=O)[O-] | -1.5
CC(C)(C)c1ccc(SCCc2ccccn2)cc1 | -0.9
Cc1nnc(NC2CCCCC2)[nH]c1=O | -1.9
N#CC1=C(N)Oc2c(oc(CO)cc2=O)C1c1ccsc1 (configuration not stated) | -0.2
O=C(CSCc1ccccc1Br)N/N=C/c1ccccc1C(=O)O | 1.2
Cc1noc(C)c1C(=O)N1CCC2(CC1)Oc1ccc(F)cc1C(=O)C21CC(c2ccc(Cl)cc2)=NO1 (configuration not stated) | -0.1
COc1ccc(O)c(C(=O)C2c3ccccc3C(=O)N2c2ccc(C)cc2)c1 (configuration not stated) | -2.3
O=C(NNS(=O)(=O)c1ccccc1[N+](=O)[O-])c1ccc(O)cc1 | -1.3
Cc1ccccc1Nc1nc(N)nc(CN2CCN(C(=O)c3ccccc3)CC2)n1 | -0.5
O=C(O)c1ccccc1C(=O)Nc1ccc(Br)c(C(F)(F)F)c1 | -3.7
Cc1ccccc1Cn1cnc2c(NS(C)(=O)=O)c(C)c(C)cc21 | -2.9
COc1ccc(NC(=O)c2ccc3c(c2)OCO3)cc1[N+](=O)[O-] | -0.7
CC(C)(C)NC(=O)c1ccc2c(c1)CCO2 | -7.3
CC(C)C(c1nnnn1CC1CCCO1)N1CCN(Cc2ccc3c(c2)OCO3)CC1 (configuration not stated) | 1.1
CCC(C(=O)NC1CCCCC1)N(C(=O)c1snc(C(N)=O)c1N)c1ccc(OC)cc1OC (configuration not stated) | -0.2
CC(CC(=O)N1CCN(c2ccccc2)CC1)S(=O)(=O)c1ccc2c(c1)NC(=O)CS2 (configuration not stated) | -2.1
CCc1ccc(/C=N/NC(=O)c2cc(C3CC3)nc3ccccc23)s1 | -0.8
CCN1CCN(c2ccc(S(=O)(=O)N3CCCCC3)cc2NC(=O)Cc2c(F)cccc2Cl)CC1 | -0.4
O=C(Nc1ccccn1)c1cccc(S(=O)(=O)N2CCOCC2)c1 | 0.9
CC(=O)c1ccc(S(=O)(=O)NCc2cccnc2)cc1 | -0.4
O=C(c1ccc2c(c1)OCCO2)N1CCN(Cc2ccccc2)CC1 | -0.1
CC(C)CNS(=O)(=O)c1cc(C(=O)OCC(=O)c2ccc3c(c2)OCCO3)c(Cl)cc1Cl | 1.2

3 of the compounds above, comma-delimited.
structure,STK33 kinase inh
Cc1ccccc1Nc1nc(N)nc(CN2CCN(C(=O)c3ccccc3)CC2)n1,-0.5
O=C(O)c1ccccc1C(=O)Nc1ccc(Br)c(C(F)(F)F)c1,-3.7
Cc1ccccc1Cn1cnc2c(NS(C)(=O)=O)c(C)c(C)cc21,-2.9

Next part:
SMILES | STK33 kinase inh
Cc1ccc(SCc2cn3cccnc3n2)cc1 | 0.2
O=C(CCn1c(=S)oc2ccccc21)NC1CCCCC1 | 0.0
Cc1ccc(C)c(NS(=O)(=O)c2cc(C(N)=O)ccc2C)c1 | 1.1
Cn1c(N)c(C(=O)COC(=O)CC(NC(=O)c2ccccc2Cl)c2ccccc2)c(=O)n(C)c1=O (configuration not stated) | -4.1
CN(C)c1cccc(C(=O)NC2CCCc3ccccc32)c1 (configuration not stated) | 0.5
Cn1c(SCCN2CCCC2)nnc1C1CCN(S(=O)(=O)c2cccc(F)c2)CC1 | -1.7
O=C(O)CCN1C(=O)/C(=C\c2cccc(Oc3ccccc3)c2)SC1=S | 1.5
Cc1cccc(OCC(=O)Nc2cccc(C(=O)Nc3ccccc3C(=O)O)c2)c1 | 3.5
O=C(COc1cc(Cl)ccc1Cl)Nc1ccc2[nH]c(=O)[nH]c2c1 | -1.6
COc1ccccc1C1C=C(c2ccc(Cl)cc2)Nc2nc(NS(C)(=O)=O)nn21 (configuration not stated) | 0.9
